Beta apoptosis: inhibitors of cytokine-induced beta cell apoptosis, primary screen, luminescence | INS-1E cytokine-induced death, ATP luminescence, 48 h; percent of positive-control rescue, neutral wells zero | protection from apoptosis, % (no concentration beside the values) | hit rate 0.8% among 300,000;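 active = all replicates at 75% or more, or half of them and the mean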;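 also: 0% = cytokine-treated negative control wells and 100% = positive control rescue; higher means more ATP so stronger rescue from cytokine killing; wells of about 40 µL received 100 nL stock; the first replicate is given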
A1 inh: caspase 3/7 activation in MEF A1-2A-BIM cells, primary screen, A1 inhibitor project, cell-based, luminescence, HTS; hit rate 0.066% among 330,000; caspase activation, % (concentration not given with the values); AID 2462, 2010; Caspase-Glo 3/7 luminescence, 3 h; percent of clofoctol response, vehicle zero;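 active = over half of replicate activation scores above 10%, or exactly half above 10 with the replicate mean above 10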;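 also: wells of about 30 µL received 50 nL stock; many hits fall short of the cut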
B2AR ag: beta2AR agonists driving receptor internalization, primary screen, cell-based, FAP fluorogen, flow cytometry | response, % (concentration not given with the values) | Beta-2 adrenergic receptor (Homo sapiens), P07550 | hit rate 0.43% among 340,000 | Am2.2-beta2AR cells; reference of the scale not given here;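 active = response above a set limit, near 3 SD of response in nonfluorescent compounds, cut at about 42% in these data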;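 also: stock transfer was 100 nL into about 11 µL; a reference agonist was the positive control; negative values mostly stem from fluorescent compounds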
Calb FLC: C. albicans growth inhibition with fluconazole, primary screen, CaCi-2 strain, Alamar Blue fluorescence | hit rate 0.57% among 300,000 | C. albicans CaCi-2 (fluconazole-resistant clinical isolate) + fluconazole, 48 h | AID 1979, 2009 | growth inhibition, % (test concentration not listed);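 active = most replicates above 75%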;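 also: all wells also contain fluconazole at 8 µg/ml as a sub-toxic cotreatment; 0% = median of DMSO wells and 100% = median of geldanamycin control wells; wells of about 8 µL received 7.5 nL stock; the first replicate is given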
LANA-H2B inh: blockers of LANA interaction with H2A/H2B – biochemical, FP readout, HTS, primary screen; hit rate 0.6% among 320,000; inhibition, % (no concentration beside the values); AID 2629, 2010; cell-free LANA-H2A/H2B peptide, fluorescence polarization; in the data active = inhibition mostly above about 10%, no sharp cut-off; inactive = mostly below about 6.7%;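 also: stock transfer was 7.5 nL into about 10 µL; 0% = median of vehicle wells and 100% = median of positive control wells; one replicate is shown; the record names a cut of 25% in any replicate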
Target sequence (Q9QR71 whole entry, looked up): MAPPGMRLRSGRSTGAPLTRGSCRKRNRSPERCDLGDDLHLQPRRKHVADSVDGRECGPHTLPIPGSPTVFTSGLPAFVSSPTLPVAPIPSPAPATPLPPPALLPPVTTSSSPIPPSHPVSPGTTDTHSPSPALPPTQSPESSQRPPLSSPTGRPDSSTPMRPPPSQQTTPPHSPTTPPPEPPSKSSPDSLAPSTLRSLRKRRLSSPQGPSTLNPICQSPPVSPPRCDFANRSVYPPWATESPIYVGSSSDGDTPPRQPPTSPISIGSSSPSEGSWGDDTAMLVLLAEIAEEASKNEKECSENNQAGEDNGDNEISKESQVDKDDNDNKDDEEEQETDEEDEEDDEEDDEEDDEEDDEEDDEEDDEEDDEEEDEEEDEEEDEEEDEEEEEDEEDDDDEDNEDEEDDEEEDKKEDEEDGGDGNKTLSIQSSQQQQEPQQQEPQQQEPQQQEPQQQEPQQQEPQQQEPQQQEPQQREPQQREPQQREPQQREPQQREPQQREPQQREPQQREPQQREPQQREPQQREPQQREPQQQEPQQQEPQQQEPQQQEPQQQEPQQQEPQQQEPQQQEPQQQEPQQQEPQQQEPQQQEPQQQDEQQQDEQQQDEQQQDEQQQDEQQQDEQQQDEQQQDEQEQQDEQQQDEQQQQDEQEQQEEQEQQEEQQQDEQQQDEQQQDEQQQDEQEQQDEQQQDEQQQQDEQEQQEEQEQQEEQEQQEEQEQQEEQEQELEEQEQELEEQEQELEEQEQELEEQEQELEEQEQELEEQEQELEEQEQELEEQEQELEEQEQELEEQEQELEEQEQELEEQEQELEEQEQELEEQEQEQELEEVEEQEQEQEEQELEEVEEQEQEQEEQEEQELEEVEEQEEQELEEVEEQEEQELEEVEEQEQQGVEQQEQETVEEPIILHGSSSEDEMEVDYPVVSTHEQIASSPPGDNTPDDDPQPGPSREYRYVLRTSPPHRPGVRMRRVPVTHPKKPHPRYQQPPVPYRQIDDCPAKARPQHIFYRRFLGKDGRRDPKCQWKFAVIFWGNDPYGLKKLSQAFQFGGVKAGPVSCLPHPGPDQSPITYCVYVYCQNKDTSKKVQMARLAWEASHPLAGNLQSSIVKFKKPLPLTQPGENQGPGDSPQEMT
Ecoli rRNA inh: reduced GFP signal of wild-type E. coli, primary screen, bacterial rRNA inhibitor project, GFP/RFP fluorescence, OD600, single point. E. coli WT GFP vs humanized-ribosome RFP mutants, 24 h; active compounds read low; DMSO median 0, no signal -100. GFP signal change (wild-type ribosome), % (no concentration beside the values). AID 720706, 2013. hit rate 1.6% among 350,000;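 active = significant combined selectivity score with lowered wild-type GFP, culture density cut under 30%, mutant RFP and density less affected; inactive = any of these conditions unmet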; also: one replicate is shown; some compounds called inactive have numbers as strong as hits
T cruzi repl: inhibitors of intracellular T. cruzi growth, primary screen, luminescence, NIH3T3 host cells; T. cruzi beta-gal in NIH3T3, 90 h; inhibition, % (no concentration beside the values); hit rate 1.4% among 300,000;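 active = mean inhibition across valid replicates above about 55%, limit read from the data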;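 also: signal also drops with host cell toxicity which is not excluded here; 0% = plate median of DMSO wells and 100% = zero luminescence signal; higher percent means less beta-gal luminescence so fewer parasites; stock transfer was 50 nL into about 50 µL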
ALR inh: inhibitors of human ALR sulfhydryl oxidase, primary screen, biochemical, H2O2 detection, HRP-luminol luminescence, single point; hit rate 3.8% among 290,000; FAD-linked sulfhydryl oxidase ALR (Homo sapiens), P55789; inhibition, % (no concentration beside the values); purified ALR, DTT oxidation;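 active = mean and each replicate at 75% or more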;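 also: stock transfer was 7.5 nL into about 7.5 µL; 0% = neutral wells and 100% = wells with inactivated enzyme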
Ecoli rRNA inh OD600: second read-out of Ecoli rRNA inh, no call of its own (marks repeat the call); OD600 change, %; measured here: OD600 growth;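 optical density of the mix in the first replicate; 0 = DMSO median and -100 = no signal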
Ecoli rRNA inh RFP: second read-out of Ecoli rRNA inh, no call of its own (marks repeat the call); RFP signal change, %; measured here: RFP humanized mutant strains;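 first replicate; 0 = DMSO median and -100 = no signal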
* hit, by the source's call; · = no result given. Some of the compounds tested. The share of hits here may be higher or lower than overall.

Sample of the layout, 13 compounds:
no.	molecule	A1 inh	Beta apoptosis	Ecoli rRNA inh RFP	T cruzi repl	B2AR ag	LANA-H2B inh	Ecoli rRNA inh	ALR inh	Calb FLC	Ecoli rRNA inh OD600
1	O=C(O)CSCC(=O)NCc1ccc(Cl)cc1Cl	-0.2	0	-2.3	2	7	-4.9	10	0	36	5
2	O=C(NCCc1nnc2ccc(NCc3ccccc3Cl)nn12)c1ccccc1	-0.6	-5	-4.3	-14	7	-1.0	3	-31	5	5
3	COc1ccc(Cl)cc1NC(=O)CN(C)C(=O)c1ccc(COc2ccccc2)cc1	0.1	3	-0.1	2	-5	1.0	-9	1	-2	-20
4	CCc1ccc(-n2nc3cc(C)c(N)cc3n2)cc1	-4.4	4	-1.3	-8	1	4.1	2	-3	-23	12
5	CCC(=O)Nc1ccc(S(=O)(=O)Nc2c(C)nc3nc[nH]n3c2=O)cc1	0.8	-15	-0.7	11	0	-3.5	6	·	-2	10
6	O=c1nc2c(-c3cccc(Br)c3)n[nH]n2c2ccccc12	-7.6	-3	4.4	-17	9	4.8	2	2	-1	9
7	Cc1ccccc1OCCn1c(=O)oc2ccccc21	1.3	-2	·	-3	-3	-2.0	·	-3	4	·
8	CC(O)CSc1nc2c(c(=O)[nH]c(=O)n2C)n1Cc1ccccc1 (stereo unspecified)	0.4	0	-2.3	-10	-3	1.2	-2	-8	2	5
9	COC(=O)c1cccc(C23CC4(C2)[C@H](CN(Cc2ccc(C(F)(F)F)cc2)[C@@H]4c2ccccc2)C3c2ccccc2)c1 (stereo partly specified)	2.1	5	·	26	6	6.6	·	1	-13	·
10	Cn1c(SCc2nc3ccccc3[nH]2)nnc1-c1ccccn1	0.2	7	·	-13	-6	-6.6	·	-9	-1	·
11	CCNC(=O)OCCC12CC3CC(CC(C3)C1)C2	-0.1	-2	·	·	-10	-0.5	·	·	·	·
12	CN(Cc1ccccc1)Cc1nc2c(c(=O)n(C)c(=O)n2C)n1CCCc1ccccc1	-1.1	-1	·	28	0	1.5	·	-34	6	·
13	COc1ccc2cc(C(=O)N3CCN(c4cccc(C)c4C)CC3)[nH]c2c1	-0.2	-9	1.9	-2	6	2.1	6	16	17	13

The listing (from the top)
no.	molecule	A1 inh	Beta apoptosis	Ecoli rRNA inh RFP	T cruzi repl	B2AR ag	LANA-H2B inh	Ecoli rRNA inh	ALR inh	Calb FLC	Ecoli rRNA inh OD600
1	O=C(O)CSCC(=O)NCc1ccc(Cl)cc1Cl	-0.2	0	-2.3	2	7	-4.9	10	0	36	5
2	O=C(NCCc1nnc2ccc(NCc3ccccc3Cl)nn12)c1ccccc1	-0.6	-5	-4.3	-14	7	-1.0	3	-31	5	5
3	COc1ccc(Cl)cc1NC(=O)CN(C)C(=O)c1ccc(COc2ccccc2)cc1	0.1	3	-0.1	2	-5	1.0	-9	1	-2	-20
4	CCc1ccc(-n2nc3cc(C)c(N)cc3n2)cc1	-4.4	4	-1.3	-8	1	4.1	2	-3	-23	12
5	CCC(=O)Nc1ccc(S(=O)(=O)Nc2c(C)nc3nc[nH]n3c2=O)cc1	0.8	-15	-0.7	11	0	-3.5	6	·	-2	10
6	O=c1nc2c(-c3cccc(Br)c3)n[nH]n2c2ccccc12	-7.6	-3	4.4	-17	9	4.8	2	2	-1	9
7	Cc1ccccc1OCCn1c(=O)oc2ccccc21	1.3	-2	·	-3	-3	-2.0	·	-3	4	·
8	CC(O)CSc1nc2c(c(=O)[nH]c(=O)n2C)n1Cc1ccccc1 (stereo unspecified)	0.4	0	-2.3	-10	-3	1.2	-2	-8	2	5
9	COC(=O)c1cccc(C23CC4(C2)[C@H](CN(Cc2ccc(C(F)(F)F)cc2)[C@@H]4c2ccccc2)C3c2ccccc2)c1 (stereo partly specified)	2.1	5	·	26	6	6.6	·	1	-13	·
10	Cn1c(SCc2nc3ccccc3[nH]2)nnc1-c1ccccn1	0.2	7	·	-13	-6	-6.6	·	-9	-1	·
11	CCNC(=O)OCCC12CC3CC(CC(C3)C1)C2	-0.1	-2	·	·	-10	-0.5	·	·	·	·
12	CN(Cc1ccccc1)Cc1nc2c(c(=O)n(C)c(=O)n2C)n1CCCc1ccccc1	-1.1	-1	·	28	0	1.5	·	-34	6	·
13	COc1ccc2cc(C(=O)N3CCN(c4cccc(C)c4C)CC3)[nH]c2c1	-0.2	-9	1.9	-2	6	2.1	6	16	17	13
14	COc1ccnc(Oc2ccccc2)c1C(=O)N/C=N/OCc1ccccc1F	0.0	-4	-6.3	13	2	3.2	-31	0	-22	-31
15	O=C(NNC(=O)c1ccc([N+](=O)[O-])cc1)c1ccc(NS(=O)(=O)c2cccs2)cc1	2.5	-2	1.3	·	-2	-2.9	-13	-6	·	3
16	COc1cc(C2C(C(C)=O)=C(O)C(=O)N2CCN(C)C)ccc1O (stereo unspecified)	0.9	-1	·	-2	2	0.2	·	5	-3	·
17	Cc1ccc(SCC2CNc3nc4ccccc4c(=O)n32)c(C)c1 (stereo unspecified)	0.6	-1	·	15	0	·	·	·	2	·
18	CCN(CC(=O)NCc1cccs1)S(=O)(=O)c1cccc(C(C)=O)c1	-0.6	-2	·	-2	-23	-0.8	·	·	-6	·
19	Cc1ccccc1C(=O)Nc1ccnn1C1CCN(C(=O)C2CCOC2)CC1 (stereo unspecified)	-1.1	-5	2.0	-6	-6	4.1	10	-1	3	12
20	COc1ccc(-c2c(S(=O)(=O)c3ccccc3)cnn2-c2ccccc2)cc1	·	-1	·	20	2	-2.8	·	-2	-3	·
21	CCN(CCn1cccn1)C(=O)c1cc(COc2ccc(F)c(F)c2)on1	-0.2	-4	-1.6	3	-5	0.0	-5	0	-6	3
22	CCN(CC)C(=O)CSc1nc2cc(OC)c(OC)cc2c(=O)n1Cc1ccc(Cl)cc1	0.2	3	·	28	-7	1.1	·	-3	10	·
23	O=C1C2(c3ccccc3)CN(CCCO)CC1(c1ccccc1)CN(CCCO)C2	0.1	-1	2.4	-2	-10	1.1	13	-6	-3	5
24	CCOc1ccccc1NC(=O)c1ccc(S(=O)(=O)N(C)c2ccccc2)cc1	1.0	-1	·	·	1	-0.5	·	1	·	·
25	CCCCN1C(=O)/C(=c2\sc3nc(=O)c(-c4ccccc4)nn3c2=O)c2ccccc21	0.6	-3	·	-9	-15	0.0	·	97*	-8	·
26	CCn1c(SCc2c(F)cccc2Cl)nnc1-c1ccco1	0.2	·	-2.7	9	6	-6.0	-18	0	0	-13
27	Cc1ccc(/C=N/Nc2ccc(C(=O)O)cc2)s1	-8.6	0	1.4	-8	2	-3.0	-1	99*	16	-3
28	Cn1c(SCC(=O)O)nc2sc3c(c2c1=O)CCC3	2.0	-6	-0.9	-12	5	-2.3	-5	5	2	-6
29	CCN(CC)CCNC(=O)c1ccc(NC(=O)c2ccc(F)cc2)cc1	0.6	5	-3.8	-6	-8	3.0	15	·	7	9
30	CCOC(=O)CSc1cc(CS(=O)c2ccc(Cl)cc2)nc(-c2ccccc2)n1 (stereo unspecified)	0.0	-2	·	3	0	9.3	·	-1	7	·
31	O=C1N=c2ccccc2=C1c1sc(Nc2cccc(O)c2)nc1O	-0.6	-7	-4.7	-5	7	-3.6	6	0	24	0
32	CC(C)(C)c1ccc(OC(=O)c2ccc3nsnc3c2)cc1	0.1	0	·	-1	-5	0.4	·	0	-2	·
33	Cc1cccc(OCC(=O)Nc2ccc(S(=O)(=O)Nc3ccccn3)cc2)c1	-2.1	-5	10	-37	-2	-1.1	8	-4	-5	16
34	Cc1onc(-c2ccccc2Cl)c1C(=O)N1CCN(C)CC1	-1.0	·	-0.3	-18	1	0.7	5	-2	-1	14
35	COc1ccc(OC)c(CNc2ccc([N+](=O)[O-])cc2C)c1	3.2	-5	-7.7	-2	3	-7.7	-38	-3	-8	-43
36	Cc1cc(=O)n(C)c2ccc(S(=O)(=O)N3CCOCC3)cc12	0.1	0	0.3	7	0	8.7	9	16	9	-2
37	CCOc1ccc(NC(=O)Nc2ccc(Br)cn2)cc1	-1.0	-7	-2.0	15	4	4.1	8	·	27	10
38	COC(=O)c1c(NC(=O)CSc2nccn2C)sc(C)c1C	-0.7	-2	-1.8	-7	-2	0.7	-5	6	0	-7
39	CCOC(=O)[C@@H]1[C@H]2COc3cc(OC)ccc3[C@@H]2N2C(=O)N(c3ccc(F)cc3)C(=O)[C@]12C	-0.8	-4	-1.7	-14	0	5.7	12	-2	8	1
40	COc1ccc(OCC(=O)NNC(=O)c2cccnc2)cc1	-0.8	2	·	4	-3	-4.2	·	-12	-1	·
41	CCOc1ccc(NC(=S)N(CCc2c(C)[nH]c3ccccc23)Cc2cccnc2)cc1	0.3	4	5.3	24	-4	4.8	-8	11	-10	-11
42	CCCCN(C(C)=O)c1c(N)n(CCC)c(=O)n(CC(=O)Nc2cc(Cl)cc(Cl)c2)c1=O	0.4	0	7.6	-17	-5	-12	4	-2	6	4
43	NS(=O)(=O)c1ccc(CCNC(=O)c2ccc(=O)[nH]c2)cc1	-0.1	2	-3.7	9	7	10	-1	-2	-3	7
44	Cc1cc2ccccc2n1CCNC(=O)COc1ccc2ccccc2c1	1.5	4	29	12	-5	3.0	-7	-101	12	0
45	Cc1ccc(CNC(=O)CN(C)S(=O)(=O)c2ccc3c(c2)n(C)c(=O)c(=O)n3C)cc1	0.1	-4	·	-6	3	-3.5	·	-5	-5	·
46	O=C(COc1ccc(Br)cc1CNC1CCCCC1)NCCc1ccccc1	0.4	21	16	23	0	1.0	-22	·	-7	-43
47	Cc1ccc(OCC(=O)N2CCN(C(=O)c3ccc([N+](=O)[O-])cc3)CC2)cc1	-0.2	4	-0.1	-6	4	-0.5	8	-7	8	7
48	CCC(C)N1C(=O)CN(C2CCCCCC2)C(=O)C1c1ccccc1F (stereo unspecified)	0.1	·	0.5	25	-4	1.4	5	2	-19	0
49	Cc1nnc(SCC(=O)NC2CCCCC2)[nH]c1=O	0.5	-21	-4.4	-12	3	-1.9	3	6	3	4
50	CCCCNC(=O)CS(=O)Cc1nc(-c2cccs2)oc1C (stereo unspecified)	1.1	-5	2.4	-7	-8	1.5	6	98*	2	14
51	CN1Cc2sc(N)c(C#N)c2CC1(C)C	0.9	7	·	18	-19	0.7	·	-3	-6	·
52	CS(=O)(=O)c1ccc(Cl)c(C(=O)OCC(=O)NC2CCCCCCC2)c1	0.0	1	0.2	·	-6	-6.7	-2	-1	·	-4
